Assay outcomes: PubChem BioAssay, ICCB-Longwood Screening Facility, Harvard Medical School
MbtI inh – MbtI salicylate synthase inhibition | P9WFX0 | purified MbtI enzyme, fluorescence intensity read-out | inhibition, %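 (about 17 µg/mL by stock and volumes)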 | 0.89% of 100,000 active;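 active = above 50% in both replicates, above 80% if mildly self-fluorescent; inactive = the rest, strongly fluorescent compounds included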;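 also: 0% = mean of negative and 100% = mean of positive controls; one replicate is shown; some compounds called inactive have numbers as strong as hits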
Target sequence (P9WFX0 whole entry, looked up): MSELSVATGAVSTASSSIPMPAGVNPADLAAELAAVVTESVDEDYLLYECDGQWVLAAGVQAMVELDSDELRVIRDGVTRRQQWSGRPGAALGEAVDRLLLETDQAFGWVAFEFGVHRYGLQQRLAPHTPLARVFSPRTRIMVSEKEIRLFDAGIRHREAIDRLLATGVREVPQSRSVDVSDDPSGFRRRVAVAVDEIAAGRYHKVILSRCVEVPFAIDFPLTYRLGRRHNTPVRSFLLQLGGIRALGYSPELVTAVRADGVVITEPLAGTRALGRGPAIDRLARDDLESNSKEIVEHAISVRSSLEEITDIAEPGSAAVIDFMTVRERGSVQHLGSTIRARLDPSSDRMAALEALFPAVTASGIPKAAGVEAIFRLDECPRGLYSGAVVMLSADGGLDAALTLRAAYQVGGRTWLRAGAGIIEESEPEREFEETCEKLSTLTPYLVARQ
Mtb MenB inh – blocks the Mycobacterium tuberculosis MenB enzyme; 0.43% of 100,000 active; inhibition, %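 (about 12 µg/mL by stock and volumes)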; MenB enzyme assay, absorbance read-out; some hits fall short of the stated cut; P9WNP5;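 active = mean of two replicates above 30%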;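 also: 0% = no compound and 100% = wells with inactive enzyme; the first replicate is given; strong numbers were not always called active; inactives centre near -10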
PV pol inh – inhibitors of poliovirus RNA polymerase binding and polymerization; AID 588519; % elongation, % (compound at 16.7 µg/mL); P03300; 0.66% of 150,000 active; poliovirus polymerase elongation, fluorescence polarization; active compounds read low; in the data active = % elongation below about 90%; also: some results filed as inactive read as strong as hits
PV pol inh intensity – also measured in PV pol inh; calls as there; % elongation; measured here: total intensity read-out; formula for this scale not given here;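 total fluorescence in place of polarization; lower means less elongation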
Active calls of the source: *; / = no result given. Not a hit list; 1.8% or so of the library scored in one or more.

SMILES	MbtI inh	Mtb MenB inh	PV pol inh	PV pol inh intensity
N#C/C=C1/NC(=O)CS1	9	-26	111	110
COc1cc(/C=N/NC(=O)Cc2cn3ccsc3n2)cc(OC)c1O	-2	-5	102	105
CN(c1ccccc1)N1C(=O)CSC1=S	-12	-141	100	100
Cc1cccc(-c2nc(C)c(CCNS(=O)(=O)c3ccc(F)c(C(F)(F)F)c3)s2)c1	77	-74	98	88
Cc1cccc(NS(=O)(=O)c2ccc3[nH]c(=O)cc(C)c3c2)c1	35	-34	/	/
O=C(Oc1ccccc1C(=S)N1CCOCC1)c1ccccc1	27	-38	104	108
COc1cc2cc(Oc3ccc4ccc(=O)oc4c3)c(=O)oc2cc1O	/	-51	111	105
CCCNc1ncnc2c1c(-c1ccccc1)cn2-c1ccc(OC)cc1	5	-24	102	103
O=C(O)CC1(CC(=O)Nc2nccs2)CCCC1	-8	-21	104	101
O=C(Nc1csc2ccccc12)N1CCN(C(c2ccccc2)c2ccccc2)CC1	1	9	109	108
Nc1nnc(-c2ccccc2)o1	/	8	100	102
COc1ccccc1/C=C1\C(=O)NC(=O)N(C2CCCC2)C1=O	11	-58	105	100
CCC(C)NC(=O)C1CCN(S(=O)(=O)c2ccc(-n3cnnn3)cc2)CC1 (stereo not drawn)	-24	-9	100	101
O=C1Nc2ccccc2S/C1=C\C(=O)N1CCCC1	-1	-39	102	110
C=CCN1C(=O)/C(=C/c2cc(C)n(-c3ccccn3)c2C)C(=O)NC1=S	12	-60	103	109
CN(C)c1nccc(N(Cc2ccccc2)Cc2ccccc2)c1C#N	36	-41	101	100
CCCCn1c(SCC(=O)NCc2ccc(C)cc2)nc2ccc(N3CCOCC3)cc2c1=O	11	-3	101	99
CC1(C2CC2)NC(=O)NC1=O (stereo not drawn)	0	5	100	101
CC(C)(Oc1ccc(Br)cc1)C(=O)O	/	-9	100	98
COc1ccc2c(ccn3cc4c(c(=O)n(C)c(=O)n4C)c23)c1	93	-7	102	103
Cc1nc2ccccc2nc1N=C(N)NC(=O)c1ccccc1	/	-5	103	112
CC(O)CNc1ncnc2sccc12 (stereo not drawn)	-4	-21	110	120
CC1=CC(C)(C)N(CN2C(=O)c3ccccc3C2=O)c2cc(C)ccc21	-5	15	101	103
CC1CCCC(C)N1/N=C/c1ccccc1F (stereo not drawn)	0	-4	94	95
Cc1onc(-c2ccccc2)c1C(=O)NC1CCCC1	/	-8	107	109

The list goes on.
SMILES	MbtI inh	Mtb MenB inh	PV pol inh	PV pol inh intensity
CCSC1=N/C(=C/c2ccsc2)C(=O)N1c1ccccc1	4	13	98	100
COc1ccc(S(=O)(=O)N(C)c2ccc(C(N)=O)cc2)cc1OC	-10	6	101	104
O/N=C/c1cn(CC(O)COc2ccc(Cl)cc2)c2ccccc12 (stereo not drawn)	-7	-13	/	/
CN(C)Cc1ccc(C#N)cc1	1	-36	103	100
Cc1ccc(C)c(NC(=O)c2ccccc2NC(=O)C2CCCO2)c1 (stereo not drawn)	-16	-9	101	102
Cc1ccc2c(CC(=O)OCc3ncc(-c4ccccc4)o3)coc2c1	8	-3	102	93
O=C(NCSCc1cccc(C(F)(F)F)c1)Nc1ccc(F)c(Cl)c1	-4	-11	99	98
CN(C)c1cccc(C(=O)OCC(=O)C(C)(C)C)c1	-109	-13	97	99
COC(=O)c1scc(C)c1NN1C(=O)C=C(C)C1=O	12	-3	103	106
Cn1ncc(I)c1C(=O)N1CCc2ccccc2C1	-14	6	101	104
CN1CCC(N(C)C(=O)c2ccc(NS(=O)(=O)c3cccs3)cc2)CC1	5	-41	103	104
CN(Cc1ccccc1)Cc1c[nH]c2ccccc12	-5	4	101	103
COC(CN(C)S(=O)(=O)c1cccc2cccnc12)OC	14	-15	103	104
O=c1[nH]c2ccccc2c(=O)n1NC(=S)NC1CC2CCC1C2 (stereo not drawn)	-5	-6	98	103
O=C(NCCCN1CCCC1=O)Nc1cnc2ccccn2c1=O	5	9	99	102
Cc1ccn(CN2CCN(Cn3ccc(C)n3)C2=S)n1	16	-9	101	101
Brc1cc2c(cc1CSc1nnc(C3CC3)n1C1CC1)OCCO2	-17	-16	103	100
Nc1nnc(CC(=O)c2ccccc2)c(=O)[nH]1	-8	-43	101	107
O=C(O)c1ccccc1Cn1ccnc1	-2	27	100	99
COc1ccc(OCCn2cc(C=C3C(=O)N(C)C(=O)N(C)C3=O)c3ccccc32)cc1	-2	-9	101	103
CN1C(=O)/C(=c2\sc3nc(-c4ccccc4)nn3c2=O)c2ccccc21	/	-13	105	110
Cn1cccc1C(=O)OCC(=O)Nc1cc(C(C)(C)C)nn1-c1ccccc1	9	-13	104	102
CC(SC1=N/C(=C\c2ccco2)C(=O)N1c1ccc(OC(F)F)cc1)C(=O)N1CCc2ccccc21 (stereo not drawn)	3	3	107	112
Cc1oc(-c2ccc(Cl)cc2)cc1CO	63	4	/	/
C/C(=N\NC(=O)C1CCN(S(=O)(=O)c2ccccc2)CC1)c1ccccc1	1	11	100	103
CCOC(=O)c1c(C)n(-c2ccc(N(C)C)cc2)c2ccc(OC)cc12	43	/	104	107
O=C1CC(c2ccccc2)CC(O)=C1C=NCCN1CCN(C2OC(=O)c3ccccc32)CC1 (stereo not drawn)	-2	3	104	105
CN1CCN(c2nc(-c3ccc[nH]3)cs2)CC1	-1	-105	99	104

Entries of single compounds from above. Order of values: MbtI inh	Mtb MenB inh	PV pol inh	PV pol inh intensity
`O/N=C/c1cn(CC(O)COc2ccc(Cl)cc2)c2ccccc12` (stereo not drawn) is listed as -7	-13	/	/
`CN1CCN(c2nc(-c3ccc[nH]3)cs2)CC1` is listed as -1	-105	99	104

In another format: results already given.
| structure | MbtI inh | Mtb MenB inh | PV pol inh | PV pol inh intensity |
| --- | --- | --- | --- | --- |
| COc1ccc(S(=O)(=O)N(C)c2ccc(C(N)=O)cc2)cc1OC | -10 | 6 | 101 | 104 |
| O/N=C/c1cn(CC(O)COc2ccc(Cl)cc2)c2ccccc12 (stereo not drawn) | -7 | -13 | / | / |
| CN(C)Cc1ccc(C#N)cc1 | 1 | -36 | 103 | 100 |
| Cc1ccc(C)c(NC(=O)c2ccccc2NC(=O)C2CCCO2)c1 (stereo not drawn) | -16 | -9 | 101 | 102 |
| Cc1ccc2c(CC(=O)OCc3ncc(-c4ccccc4)o3)coc2c1 | 8 | -3 | 102 | 93 |
| O=C(NCSCc1cccc(C(F)(F)F)c1)Nc1ccc(F)c(Cl)c1 | -4 | -11 | 99 | 98 |
| CN(C)c1cccc(C(=O)OCC(=O)C(C)(C)C)c1 | -109 | -13 | 97 | 99 |
| COC(=O)c1scc(C)c1NN1C(=O)C=C(C)C1=O | 12 | -3 | 103 | 106 |
| Cn1ncc(I)c1C(=O)N1CCc2ccccc2C1 | -14 | 6 | 101 | 104 |
| CN1CCC(N(C)C(=O)c2ccc(NS(=O)(=O)c3cccs3)cc2)CC1 | 5 | -41 | 103 | 104 |
| CN(Cc1ccccc1)Cc1c[nH]c2ccccc12 | -5 | 4 | 101 | 103 |
| COC(CN(C)S(=O)(=O)c1cccc2cccnc12)OC | 14 | -15 | 103 | 104 |
| O=c1[nH]c2ccccc2c(=O)n1NC(=S)NC1CC2CCC1C2 (stereo not drawn) | -5 | -6 | 98 | 103 |
| O=C(NCCCN1CCCC1=O)Nc1cnc2ccccn2c1=O | 5 | 9 | 99 | 102 |
| Cc1ccn(CN2CCN(Cn3ccc(C)n3)C2=S)n1 | 16 | -9 | 101 | 101 |
| Brc1cc2c(cc1CSc1nnc(C3CC3)n1C1CC1)OCCO2 | -17 | -16 | 103 | 100 |
| Nc1nnc(CC(=O)c2ccccc2)c(=O)[nH]1 | -8 | -43 | 101 | 107 |
| O=C(O)c1ccccc1Cn1ccnc1 | -2 | 27 | 100 | 99 |
| COc1ccc(OCCn2cc(C=C3C(=O)N(C)C(=O)N(C)C3=O)c3ccccc32)cc1 | -2 | -9 | 101 | 103 |
| CN1C(=O)/C(=c2\sc3nc(-c4ccccc4)nn3c2=O)c2ccccc21 | / | -13 | 105 | 110 |
| Cn1cccc1C(=O)OCC(=O)Nc1cc(C(C)(C)C)nn1-c1ccccc1 | 9 | -13 | 104 | 102 |
| CC(SC1=N/C(=C\c2ccco2)C(=O)N1c1ccc(OC(F)F)cc1)C(=O)N1CCc2ccccc21 (stereo not drawn) | 3 | 3 | 107 | 112 |
| Cc1oc(-c2ccc(Cl)cc2)cc1CO | 63 | 4 | / | / |
| C/C(=N\NC(=O)C1CCN(S(=O)(=O)c2ccccc2)CC1)c1ccccc1 | 1 | 11 | 100 | 103 |
| CCOC(=O)c1c(C)n(-c2ccc(N(C)C)cc2)c2ccc(OC)cc12 | 43 | / | 104 | 107 |
| O=C1CC(c2ccccc2)CC(O)=C1C=NCCN1CCN(C2OC(=O)c3ccccc32)CC1 (stereo not drawn) | -2 | 3 | 104 | 105 |
